From PubChem BioAssay
NPYLR7 agonist: mosquito NPYLR7 agonism | AID 1259423 | activation, % at 10 µM | HEK293T NPYLR7/Galpha15, GCaMP6s calcium fluorescence | 0.15% of 270,000 active; in the data active = activation above about 40%;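 note: 0% = vehicle and 100% = reference agonist at the receptor; some compounds past the cut are filed as inactive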
NPYLR7 agonist max-min: further read-out of NPYLR7 agonist, marked with its call; activation, %; measured here: Max-Min RFU normalised activation; some inactives read as strong as hits;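 span of the calcium signal over five minutes; 0% = vehicle and 100% = native peptide agonist; compound fluorescence can raise it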
* hit, by the source's call; & = joins results of further samples. The list is partial. The share of hits here may be higher or lower than overall.

SMILES	NPYLR7 agonist	NPYLR7 agonist max-min
O=C1CC(N2CCN(S(=O)(=O)c3ccc(Cl)c(Cl)c3)CC2)C(=O)N1C1CC1 (configuration not stated)	2.7	0.6
O=C(NCc1cccs1)c1cccn2c(=O)c3sccc3nc12	-0.1	-1.3
CC(c1ccc(S(C)(=O)=O)cc1)N(C)C(=O)Cc1ccccc1F (configuration not stated)	6.4	1.3
O=C(Nc1ccc2nc([C@@H]3O[C@H](CO)[C@@H](O)[C@H]3O)[nH]c2c1)Nc1ccccc1-c1ccccc1	11.0	18.6
CC(C)NS(=O)(=O)c1cccc(C(=O)N2CCN(S(=O)(=O)c3ccc(F)cc3)CC2)c1	4.1	2.1
O=C(O)C1(S(=O)(=O)c2ccc(Br)cc2)CCCC1	2.0&-7.5	2.4&-12.4
CCCCNCC(=O)N1c2ccccc2-n2cccc2C1c1cccc(Cl)c1 (configuration not stated)	3.0	3.7
Cc1ccc(-c2ccc(=O)n(CCCC(=O)Nc3nc4ccc(C)cc4s3)n2)cc1	-13.1	-20.9
COc1ccccc1-c1cc(C(=O)O)nc2c(-c3ccccc3)c(C)nn12	-5.7	-2.5
COc1ccc(-n2nnc3c(SCC(=O)Nc4ccccc4OC)ncnc32)cc1	18.9	19.6
O=C(NC1CCCN(Cc2ccccn2)C1)c1ccc2c(c1)OCCO2 (configuration not stated)	-0.7	-5.2
c1cncc(OCCCNc2nc(-c3ccncc3)nc3c2CCNC3)c1	1.2	1.8

A second format for part of the listing above.
Values run as follows: NPYLR7 agonist | NPYLR7 agonist max-min
O=C(O)C1(S(=O)(=O)c2ccc(Br)cc2)CCCC1
  2.0&-7.5 | 2.4&-12.4
CCCCNCC(=O)N1c2ccccc2-n2cccc2C1c1cccc(Cl)c1 (configuration not stated)
  3.0 | 3.7
Cc1ccc(-c2ccc(=O)n(CCCC(=O)Nc3nc4ccc(C)cc4s3)n2)cc1
  -13.1 | -20.9
COc1ccccc1-c1cc(C(=O)O)nc2c(-c3ccccc3)c(C)nn12
  -5.7 | -2.5
COc1ccc(-n2nnc3c(SCC(=O)Nc4ccccc4OC)ncnc32)cc1
  18.9 | 19.6
O=C(NC1CCCN(Cc2ccccn2)C1)c1ccc2c(c1)OCCO2 (configuration not stated)
  -0.7 | -5.2
c1cncc(OCCCNc2nc(-c3ccncc3)nc3c2CCNC3)c1
  1.2 | 1.8

Additional records follow:
SMILES	NPYLR7 agonist	NPYLR7 agonist max-min
COc1ccc(/C=C/c2noc(C)c2NC(=O)C2CCCC2)cc1	-0.3	-0.8
CCOc1ccc(NC(=Nc2nc(C)cc(C)n2)NC(C)=O)cc1	-7.3	-12.5
O=C(Nc1cc(F)ccc1F)c1ccc(S(=O)(=O)N2CCOCC2)cc1	-0.3	-2.7
COc1ccc(-c2nc3ccccc3o2)cc1NC(=O)c1ccc(-c2ccccc2)cc1	-3.1	0.0
O=C(c1cc(Cl)ccn1)N1CCC(C(O)c2ccc(F)cc2)CC1 (configuration not stated)	6.2	4.2
O=C(O)c1ccc(-c2c[nH]c3ncc(-c4ccccc4)cc23)cc1C1CCCC1	-13.3	-19.0
CN1CCC2(CC1)CN(C(=O)c1cccc(-c3cn[nH]c3)c1)CCN2C	6.9	4.8
CCOc1ccc(Br)cc1S(=O)(=O)Nc1ccc(F)cc1Cl	5.0	9.3
COc1ccc(C2Nc3ccc(C(=O)c4ccccc4)cc3N=C3CCCC(=O)C32)cc1 (configuration not stated)	-2.3	-1.3
O=c1[nH]nc(C(O)c2ccccc2)n1CC1CCCCC1 (configuration not stated)	25.5	9.6
COc1ccc(Oc2ccc(C(=O)NCCc3cnc[nH]3)cc2)cc1	-0.9	-0.7
CCOC(=O)Nc1snc(C)c1C(=O)OCC	0.6	0.2
COc1ccc2cc(C3CN(c4nccnc4C)CCO3)ccc2c1 (configuration not stated)	11.2	-6.5
Cc1nc(Cl)c(N)c(Oc2ccc3cccnc3c2)n1	18.5	6.2
C#CCOCC(O)CN(CCC)Cc1c(C)nn(-c2ccc(F)cc2)c1Oc1ccc(F)cc1 (configuration not stated)	-1.5	5.0
O=C(CSc1nnc(Cc2ccccc2)o1)c1ccc(F)cc1	1.1	-0.9
COc1ccc(-c2nc(Cc3ccccc3Cl)no2)c(OC)c1	2.0	-0.1
Cn1nc(C(=O)NC(Cc2nc3ccccc3n2C)c2ccccc2)ccc1=O (configuration not stated)	7.5	9.1
O=C(CSc1nnnn1C1CC1)c1ccc2c(c1)CCC2	3.9	2.3
Cc1cc(C)c(C(=O)N2CCc3onc(-c4ccc(Cl)cc4)c3C2)o1	4.4	0.3
CNC(=O)CN1c2ccccc2C(=O)N(C)C1c1csc(C(C)C)n1 (configuration not stated)	3.2	-1.2
Cc1[nH]nc2c1C(c1cccc3ccccc13)CC(=O)N2 (configuration not stated)	10.1	8.6
O=C(Cc1ccc(F)cc1)N1CCN(c2nccc(-c3ccc(Oc4ccccc4)cc3)n2)CC1	0.1	1.4
OCCc1ccc(-c2noc(C3CCC3)n2)cc1	19.1	12.5
CC(C(=O)OCC(=O)c1ccccc1)N1C(=O)C2C3C=CC(C3)C2C1=O (configuration not stated)	-0.4	-7.1
O=C(c1ccc(OC2CCN(Cc3ccccn3)CC2)cc1)N1C[C@H]2CC[C@H]1C2	2.0	0.7
Cc1cc(C(=O)NCCCNC(=O)c2cccc(O)c2)c(C)s1	6.1	4.4
COC(=O)Cn1cnc2c(nnn2-c2ccc(F)cc2)c1=O	7.9	10.3
COc1ccc(-c2nc3ccccn3c2NC(=O)C(Cl)Cl)cc1	0.4	8.8
COCCNC(=O)C(NC(=O)C1CC1)C1CCN(C(=O)c2ccc(Cl)cc2)CC1 (configuration not stated)	14.5	16.1
CC(C)(C)CC(=O)Nc1cnn(-c2ccccc2S(C)(=O)=O)c1	-3.5	-3.4
CCN(C(C)=O)c1nc(CN2CCCN(S(C)(=O)=O)CC2)cs1	-1.7	-1.8
CCc1nc2ccc(C(=O)N3CCN(S(=O)(=O)CC)CC3)cn2c1N(C)Cc1cc2ccccc2s1	-1.3	-4.1
O=C(Nc1nccs1)c1c(O)c2c([nH]c1=O)CCCC2	5.6	4.2
CC(C)c1cc(Oc2ccccc2F)nc(SCc2cccc(C#N)c2)n1	2.1	8.4
COC(=O)C(C)NC(=O)C1CCN(S(=O)(=O)c2ccc(F)cc2)CC1 (configuration not stated)	-1.6	5.7
Cc1noc(C)c1C(C)C(=O)N(C)c1ccc(Oc2ccccc2)cc1 (configuration not stated)	-3.7	-3.1
COCCN(Cc1nccn1Cc1c(F)cccc1Cl)C(=O)c1cccc(F)c1	1.2	10.5
Cn1nc(Sc2ccc3c(c2)OCCO3)c(=O)n(C)c1=O	-4.2	-4.2
COc1cc(N=Cc2nc(-c3ccccc3)oc2O)c(C(=O)O)cc1OC	4.2	2.7
CC(C(=O)Nc1ccc2c(c1)C(=O)N(CC1CC1)C2=O)n1ccnc1 (configuration not stated)	-0.5	-10.3
COc1cc2nc(N3CCC(c4nncn4C)CC3)cc(C)c2cc1OC	-2.4	43.6
O=C(CCN1CCC(O)(c2cccnc2)CC1)N1CCc2ccccc2C1	12.1	-0.6
CC(C)NC(=O)NC(=O)COC(=O)C1CC2CCCC(C1)C2=O (configuration not stated)	-4.4	-4.0
CC(C)=CCC/C(C)=C/CNC(=O)C(C)(C)Oc1ccc(CCNC(=O)c2ccc(Cl)cc2)cc1	-7.4	-16.3
Cc1cc(-c2c(-c3ccccc3)ncn2C(c2ncnn2C)C2CC2)n[nH]1 (configuration not stated)	-1.7	32.3
CCSc1nnc2c(n1)OC(c1ccc(O)c(OC)c1)Nc1ccccc1-2 (configuration not stated)	-3.9	-5.4
CCn1cc(S(=O)(=O)c2ccccc2)c(=O)c2cc(F)c(N3CCCC(C)C3)cc21 (configuration not stated)	3.8	6.5
COc1ccc(C=Nc2cnn(C)c2C(N)=O)cc1	1.5	-4.9
COCc1ncc(CN2CCN(c3cc(C)nc(SC)n3)CC2)cn1	-6.2	-8.6
O=C(NCc1cc(-c2ccc3c(c2)OCO3)on1)C1CC1	1.0	-0.5
CN(Cc1nc2ccc(F)cc2[nH]1)C(=O)[C@@H](N)Cc1ccc(O)cc1	6.3	2.8
Cc1ccc(C)c(C(=O)N(CCCN(C)C)c2nc3ccc(F)cc3s2)c1	1.3	-1.1
Cc1cc(=O)n(C)cc1NC(=O)c1cnn(-c2ccccc2)c1C	-2.2	-4.9
Nc1nonc1-c1nc2ccccc2n1Cc1cc2c(cc1Cl)OCO2	9.5	4.8
CN(Cc1ccccc1)C(=O)Nc1ccccc1C(F)(F)F	-0.8	-2.4
COc1ccccc1C(O)CNc1nccc(-c2ccc(C)nc2C)n1 (configuration not stated)	22.2	14.2
Cc1ccc2ncc(C(=O)NCc3ccc(F)cc3)c(=O)n2c1	8.8	5.7
CC(C(=O)NC(=O)NC1CC1)N(C)Cc1c(F)cccc1Cl (configuration not stated)	0.2	-0.9
Cc1cc(COc2ccccc2)oc1C(=O)NC1CCCCNC1=O (configuration not stated)	4.8	1.7
Other structures:
SMILES	NPYLR7 agonist	NPYLR7 agonist max-min
COc1cc(/C=C/C(=O)NCC2COc3ccccc3O2)ccc1OCC#N (configuration not stated)	9.1	7.0
C/C(=C\c1cc(Cl)ccc1O)CN1CCN(c2ncc(F)cn2)CC1	27.2	8.9
Cc1cc(NC(=O)CNc2ccc(F)c(-n3nnnc3C)c2)n(C)n1	1.5	0.3
COc1ccc(CSc2nnc(N)s2)cc1	14.6	12.2
COc1nn(C)cc1C(=O)N1CCN(C2=NN=C(c3ccccc3)CS2)CC1	9.4	9.3
COC(=O)C(NCc1ccc(Cl)s1)C(C)(C)C (configuration not stated)	1.7	0.1
O=C1c2ccccc2C(=O)N1CCCCN(C(=O)c1cccc([N+](=O)[O-])c1)c1ccc(Cl)cc1	-1.4	-6.8
CN(C(=O)COc1cccc(-n2cnnn2)c1)C1CCS(=O)(=O)C1 (configuration not stated)	16.4	12.3
Cc1cc(C)c(C(=O)N2CCN(C(=O)c3cccs3)CC2)cc1C	-4.4	-7.7
O=C(c1ccccn1)N1CCN(Cc2ccccc2)CC1	-19.1	-19.1
CN1CCOC(C(=O)Nc2ccc(NCCc3ccccc3)cc2)C1 (configuration not stated)	10.5	4.4
CCC1CN(C(=O)c2cnc(N)nc2C)CCC(=O)N1Cc1ccccc1 (configuration not stated)	-6.7	-9.1
CCN(C(=O)c1ccc(Oc2ccccc2)o1)C1CCS(=O)(=O)C1 (configuration not stated)	-2.5	-4.6
COc1ccccc1CN(CCc1c[nH]c2ccccc12)C(=O)CN(C(=O)C(Cl)Cl)C(C)C	10.6	19.8
Cc1ccc2nc(N(CCCn3ccnc3)C(=O)c3ccco3)sc2c1	-10.9	-16.4
NC(=O)C1CCCN(CCCNC(=O)C2(c3ccc(Cl)cc3)CCCC2)C1 (configuration not stated)	10.0	6.5
CCn1c(C2CCN(C(=O)c3cc(C(C)C)[nH]n3)CC2)n[nH]c1=O	1.6	-1.3
O=C(Nc1cccc(-c2ccc(F)cc2)c1)C1CCCN(C(=O)c2cncs2)C1 (configuration not stated)	2.0	-2.6
Nc1nnc(CCCNC(=O)C2(c3ccccc3F)CC2)s1	0.2	-1.1
CC(C)(Oc1ccc(Cl)cc1)C(=O)N1CCn2c(nnc2C(=O)NCC2CC2)C1	7.5	3.1
Cc1ccc(C)c(NS(=O)(=O)c2cccc([N+](=O)[O-])c2)c1	-3.8	-3.5
Cc1ccc(OCc2nc(Cn3ncc(Cl)c(Cl)c3=O)cs2)cc1	10.8	6.8
O=C(CCN(c1nc(-c2cccs2)nc2ccccc12)C1CCCCC1)NCc1ccccc1	15.7	15.5
CN1C(=O)C(Cc2ccc(Br)s2)C(=O)N(C)C1=O	-0.7	-3.9

Complete entries, looked up by structure. Order of values: NPYLR7 agonist, NPYLR7 agonist max-min
Shown for CCN(C(=O)c1ccc(Oc2ccccc2)o1)C1CCS(=O)(=O)C1 (configuration not stated) : -2.5, -4.6
Shown for Nc1nnc(CCCNC(=O)C2(c3ccccc3F)CC2)s1 : 0.2, -1.1
Shown for Cc1ccc2nc(N(CCCn3ccnc3)C(=O)c3ccco3)sc2c1 : -10.9, -16.4

(more compounds)
SMILES	NPYLR7 agonist	NPYLR7 agonist max-min
CC(C)Cc1noc(CNC(=O)NCc2ccco2)n1	-0.8	-2.0
CCOc1ccc(-c2ccc(=O)n(CCCC(=O)Nc3ccc(C(C)=O)cc3)n2)cc1	15.6	17.1
COc1nc(C)c(C(=O)N2CCN3CCN(C)C(=O)C3C2)s1 (configuration not stated)	21.2	9.2
COc1ccc(-n2c(CCN3CCN(C)CC3)n[nH]c2=S)cc1	-3.4	-8.4
CCC(=O)N(c1nnc(SCC(=O)c2ccc(C)s2)s1)C1CC1	10.3	13.5
CC1(C(=O)Nc2nccs2)CCN1C(=O)Cc1ccccc1Cl (configuration not stated)	0.2	-1.2
CN(CCOc1ccccc1F)C(=O)c1ccc[nH]c1=O	-0.6	-1.4
O=S(=O)(N=C(c1ccccc1F)N1CCCCC1)c1ccccc1	-3.2	-5.3
CN(C)CCN(C(=O)c1cc(Cl)sc1Cl)c1nc2c(F)cc(F)cc2s1	-7.9	-11.3
C=CCNC(=O)c1c(NC(=O)c2ccc([N+](=O)[O-])cc2)sc2c1CCCC2	3.9	2.1
O=C(OCc1ccccc1)[C@@H]1C[C@@H](O)CN1C(=O)c1cccnc1N1CCCC1c1ccncc1 (some centres not stated)	2.6	3.8
Cc1nnc(SCc2ccccc2F)[nH]c1=O	-2.9	-3.9

Reprinted at random: three records from the list, in no set order.
SMILES	NPYLR7 agonist	NPYLR7 agonist max-min
O=C(CSc1nnc(Cc2ccccc2)o1)c1ccc(F)cc1	1.1	-0.9
O=C(c1ccc(OC2CCN(Cc3ccccn3)CC2)cc1)N1C[C@H]2CC[C@H]1C2	2.0	0.7
Cc1ccc(C)c(C(=O)N(CCCN(C)C)c2nc3ccc(F)cc3s2)c1	1.3	-1.1

(next part)
SMILES	NPYLR7 agonist	NPYLR7 agonist max-min
Cc1nc2n(n1)C(=O)C(C(c1ccccc1)N1CCc3ccccc3C1)S2 (configuration not stated)	-4.9	-5.5
CCOc1ccc(-n2nnc3c(N4CCN(C(=O)c5cc6ccccc6o5)CC4)ncnc32)cc1	-3.1	-4.9
CCOC(=O)c1sc(N(CC)C(=O)C2CC3CCC2C3)nc1C (configuration not stated)	-2.4	-10.4
C=CCN1C(=O)NC(c2ccsc2)C2=C1CN(Cc1ccccn1)C2=O (configuration not stated)	-1.8	10.6
